Choline anaer gr – blocks anaerobic gram-negative growth on choline | Gram-negative bacterium anaerobic choline minimal medium, absorbance growth; hits give low values; many inactives read as strong as hits in the columns shown | hit rate 0.2% among 55,000 | calls only;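 active = growth z-score on choline under -2 at 7 or 20 h with little or no fall on glycerol, limits in tiers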;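 note: stock transfer was 300 nL into about 50 µL; the organism is E. coli; final concentration not given here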
Choline anaer gr early – also measured in Choline anaer gr; calls as there; z-score; measured here: choline growth z-score, timepoint 1;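 score of optical density at 7 h as mean of two plates; lower means less growth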
Active calls of the source: *; i = inactive; + = active, no number; & = joins results of further samples. An excerpt; the hit share may differ from the screen's.

SMILES	Choline anaer gr	Choline anaer gr early
O=C(O)c1ccc(N2C(=O)c3[nH]nc(-c4ccccc4)c3C2c2ccc(Cl)cc2)cc1 (stereo not given)	i	0.29
COc1cc2[nH]c(=O)n(CCCC(=O)N3CCN(c4cccc(C)c4C)CC3)c(=O)c2cc1OC	i	-0.3
Cc1cc(Nc2nc(C(=O)NC(C)C)cc3occc23)ccc1Br	i	1.39
NC(N)=NCCCCN=C(N)N	i	-0.04
COCCCN1CCc2nc(SCc3c(F)cccc3Cl)[nH]c(=O)c2C1	i	-0.05
CN(C)CCNC(=O)c1cc2c(n(-c3ccc(F)cc3)c1=O)CCCC2=O	i	-1.41
CCOc1ccc(-c2nonc2NC(=O)C(C)Oc2ccc(C)c(C)c2)cc1C (stereo not given)	i	2.09
NC(=O)c1noc2c1COc1ccccc1-2	i	0.26
CC1CCN(c2cc(C(=O)O)c3cc(NC(=O)c4ccc(Br)cc4)ccc3n2)CC1	i	0.19
Cc1cccc(NC(=O)C(C)Sc2nc3c(c(=O)[nH]2)CCCC3)c1C (stereo not given)	i	1.1
O=C(C1CCN(c2nnc(N3CCCC3=O)s2)CC1)N1CCc2ccccc2C1	i	0.18
CCCCOC(=O)c1ccc(NC(=O)C2=Cc3ccc(C)cc3OC=C2)cc1	i	2.48
Cc1ccc(C)c(N2CCN(c3nccn4nc(-c5ccc(Br)cc5)cc34)CC2)c1	i	-0.27
CC(C)CNC(=O)c1ccc(Oc2ccnc(-c3ccc(F)cc3)n2)cc1	i	0.73
COc1ccc(C2CC(=O)Nc3c2cnn3-c2nc3ccccc3s2)cc1O (stereo not given)	i	0.81

Single records, from the list above:
CN(C)CCNC(=O)c1cc2c(n(-c3ccc(F)cc3)c1=O)CCCC2=O is listed with Choline anaer gr = i; Choline anaer gr early = -1.41
CC(C)CNC(=O)c1ccc(Oc2ccnc(-c3ccc(F)cc3)n2)cc1 is listed with Choline anaer gr = i; Choline anaer gr early = 0.73

Next compounds.
SMILES	Choline anaer gr	Choline anaer gr early
CN1CCN(c2ccc(C(=O)O)cc2NS(C)(=O)=O)CC1	i	-0.28
CC(=O)N1CCCc2cc(S(=O)(=O)NCC3CCCO3)ccc21 (stereo not given)	i	-0.44
CC(C)(C)c1ccc(C(=O)N(CCCN2CCCC2=O)CCC(=O)N2CCNCC2)cc1	i	0.17
O=C(C1CCC1)N1CCCCC1CCN1CCOCC1 (stereo not given)	i	0.19
O=C1C(=O)N(C2CCN(C(=O)c3ccc(F)cc3)CC2)CCN1Cc1ccc(F)cc1	i	0.07
CC(=O)Oc1cc(C(F)(F)F)ccc1C(=O)O	i	0.36&0.23
CCn1nc(C)c(CCN(C)C(=O)Nc2ccc(Cl)cc2)c1C	i	-0.2
CCC(C)NC(=O)c1cc(NS(=O)(=O)c2ccc(Br)cc2)cnc1N1CCNCC1 (stereo not given)	i	0.49
CCOC(=O)c1cccc(NS(=O)(=O)c2cc(-c3cc(C)[nH]n3)ccc2C)c1	i	1.36
CCCCN1CCc2nc(Nc3cccc(OC)c3)ncc2C1	i	-1.16
Cn1c(NC(=O)C(c2ccccc2)c2ccccc2)cc(=O)n(C)c1=O	i	0.96
CC1CC(OC(=O)C(O)c2ccccc2)CC(C)(C)N1C (stereo not given)	i	0.45
Cc1noc(C)c1CCNC(=O)c1ccc(CN2C(=O)CCn3nccc32)cc1	i	1.26
COc1ccc(Cl)cc1NS(=O)(=O)c1c(C)sc(C)c1-c1cc(C)[nH]n1	i	1.71
COc1ccc(OC)c(NS(=O)(=O)c2cc(-c3cnn4c(C)cc(C)nc34)ccc2OC)c1	i	0.29
CCOCCCNC(=O)C1c2c(n(C)c3ccccc23)SCC(=O)N1c1cccc(Cl)c1 (stereo not given)	i	0.08
CCOc1ccc(N2C(=O)c3cc4sccc4n3CC2(C)C(=O)NC2CCC(C)CC2)cc1 (stereo not given)	i	-0.5
CCN1CCc2c(sc(-n3cccc3)c2C(C)NC(=O)Nc2ccc(F)cc2)C1 (stereo not given)	i	0.62
O=C(Nc1ccc2c(c1)OCO2)c1cccc(Nc2ccnc(-c3ccc(F)cc3)n2)c1	i	0.12
CCc1c(C)nc2ncnn2c1N1CCN(c2ccc(C)cc2C)CC1	i	1.41
CCOC(=O)[C@@](C)(N)Cc1ccc(O)c(O)c1	i	0.53
CN1CCN(C(=O)c2ccccc2Br)c2ccccc21	i	-0.37
CCC(Cn1nnc2ccccc2c1=O)NC(=O)Nc1cccc(C)c1 (stereo not given)	i	0.11
O=S1(=O)N=CN(Cc2ccccc2F)c2ccccc21	i	-0.25
CCCCN(CC)C(=O)c1cc2c(=O)oc3ccccc3c2n1C	i	-0.46
[C-]#[N+]c1cc(-c2ccncc2)c(C)[nH]c1=O	i	0.16
COc1ccccc1NC(=O)CSc1nc2nccnc2c(=O)n1Cc1ccc(Cl)cc1	i	0.97
CN(C(=O)CSc1nnc(-c2ccncc2)o1)c1ccccc1	i	0.12
CC1CN(CC(=O)N2CCc3ccccc32)c2ccccc2S1 (stereo not given)	i	0.57
Cc1c(C)n(-c2cc(F)cc(F)c2)c2ncnc(Cl)c12	i	-1.28

3 structures out of the list, arranged by count of non-hydrogen atoms, high to low.
SMILES	Choline anaer gr	Choline anaer gr early
CCOc1ccc(N2C(=O)c3cc4sccc4n3CC2(C)C(=O)NC2CCC(C)CC2)cc1 (stereo not given)	i	-0.5
CCc1c(C)nc2ncnn2c1N1CCN(c2ccc(C)cc2C)CC1	i	1.41
CN1CCN(C(=O)c2ccccc2Br)c2ccccc21	i	-0.37

Following part
SMILES	Choline anaer gr	Choline anaer gr early
CCOC(=O)c1ccc(NC(=O)c2sc3nc(N4CCCC4)c4c(c3c2N)CCCC4)cc1	i	0
Cc1nc2cc(-c3noc(CCC4CCCC4)n3)ccc2o1	i	-1.88
COc1ccc(-c2cnn3c(SCC(=O)NC4CCS(=O)(=O)C4)cc(C)nc23)cc1OC (stereo not given)	i	-1.01
Cc1ccc(S(=O)(=O)N2CCC(CN3CCCC(C)C3)CC2)cc1F (stereo not given)	i	-1.01
COc1ccc(CCNS(=O)(=O)c2ccc3c(c2)NC(=O)CS3)cc1OC	i	0.95
Cc1cccc(C(=O)Nc2cc3c(cc2SC(C)C)n(C)c(=O)n3C)c1	i	0.05
COc1ccccc1NC(=O)N1CCN(Cc2ccc3nccnc3c2)CC1	i	0.52
Cc1cccc(-c2noc(Cc3nc(-c4ccc5c(c4)OCO5)cs3)n2)c1	i	1.8
CCCCN(C)Cc1nc2nc(C)cc(N3CCC(C)CC3)n2n1	i	0.51
O=C(Nc1ccc(-c2noc(C3CCC3)n2)cc1)Nc1cccc(Br)c1	i	-1.06
O=C(NCC(c1cccnc1)N1CCc2ccccc2C1)c1cccc(Br)c1 (stereo not given)	i	-0.74
Cn1c(=O)sc2cc(S(=O)(=O)N3CCCC3)ccc21	i	-0.61
COc1ccc(CCNC(=O)CN(C)S(=O)(=O)c2ccc3c(c2)C(C)(C)C(=O)N3C)cc1OC	i	0.13
Cc1ccc(-c2nc(C)cc(OCC(=O)Nc3c(C)cc(C)cc3C)n2)cc1	i	0.3
CCc1onc(C)c1C1CCCN1C(=O)C(C)(C)C (stereo not given)	i	0.74
CCCn1c(=O)c2ccccc2n2c(=O)n(CC(=O)NCc3ccccc3)nc12	i	-0.36
Cc1cccc(CN2CCC(CNC(=O)CSc3cc(=O)n(C)c4cc(Cl)ccc34)CC2)c1	i	1.3
COC(=O)c1cc(C(=O)Nc2ccc(OC)cc2OC)c(=O)[nH]c1C	i	-0.82
CCc1ccccc1NC(=O)CC1CCN(C(=O)c2cn(-c3ccccc3)nc2-c2ccccc2)CC1	i	0.43
Cc1nc(OCC(=O)N2CCOCC2)c2c(-c3ccc(F)cc3)noc2n1	i	-0.1
CCOC(=O)c1[nH]c2ccccc2c1NC(=O)CSCc1ccccc1	i	1.84
Cn1c(=O)c2nc(S(=O)(=O)CCC(=O)O)n(Cc3ccc(F)cc3)c2n(C)c1=O	i	1.01
Cc1ccc(CN2CCCC(c3nncn3Cc3ccccc3)C2)o1 (stereo not given)	i	-0.6
COc1ccc(CNC(=O)c2ccc3cccc(O)c3n2)c(OC)c1	i	-0.01
CCNC(=O)c1nn(-c2ccccc2C)nc1CO	i	1
COc1ccccc1C(=O)NCCc1csc(-c2ccccc2)n1	i	0.57
Cc1cccc(C(=O)NCC(c2ccccc2)c2c[nH]c3ccccc23)c1 (stereo not given)	i	-0.6
Cc1ccc(Cl)cc1NC(=O)CCCN1C(=O)C(c2ccccc2)Oc2cccnc21 (stereo not given)	i	0.21
OCC1O[C@H]([S-])[C@@H](O)C(O)[C@@H]1O.[Au+] (stereo not given in full)	+	-2.58*
Cc1ccc(-c2nnc(SCc3noc(CCC(=O)Nc4nccs4)n3)o2)cc1	i	0.98
COc1ccc(OC)c(S(=O)(=O)N(C(=O)c2ccc(C)cc2)c2ccc3oc(=O)sc3c2)c1	i	0.35
Cc1ccc(N2CCN(CC(O)Cn3c(C)c(C)c4ccccc43)CC2)cc1 (stereo not given)	i	0.65
CCN1CCCc2cc(C(=O)NCc3cccs3)sc21	i	1.6
c1cc(-c2noc(C3CC3)n2)cc(N2CCCC2)n1	i	-0.54
Cc1ccc(NS(=O)(=O)c2cc(-c3cc(C(F)(F)F)on3)sc2C)c(C)c1	i	0.26
CCC(C)NC(=O)N1CCCN(C(C)=O)CC1 (stereo not given)	i	0.34
COc1ccccc1NC(=O)Nc1ccccc1OCc1cc(=O)n2c(ncn2C(C)C)n1	i	-1.28
COc1ccc(-n2nnc(-c3nsc(Nc4ccc(OC)c(Cl)c4)n3)c2C)cc1	i	1.88
COc1ccc(CNC(=O)CCc2cn(C)c3ccccc23)cc1	i	0.05
COc1ccc2cc3c(N)nn(C(=O)CCS(=O)(=O)c4ccccc4)c3nc2c1	i	-1.01
CC(C)c1cc(C2CCCN2S(=O)(=O)c2ccccc2)on1 (stereo not given)	i	-0.53
CCOc1ccccc1CN1CCCC1c1c(C)noc1C (stereo not given)	i	-1.37
CCn1ccc2cc(S(=O)(=O)N3CCCN(C(=O)Nc4cc(OC)ccc4OC)CC3)ccc21	i	-0.95
CCOc1ccc(C(=O)Oc2cc(N)n(S(=O)(=O)c3ccc(F)cc3)n2)cc1	i	1.91
COc1ccc(C(CNC(=O)COc2ccccc2OC)c2c[nH]c3ccccc23)cc1 (stereo not given)	i	0.33

Of the compounds above, these have two or more sulfur atoms:
SMILES	Choline anaer gr	Choline anaer gr early
COc1ccc(Cl)cc1NS(=O)(=O)c1c(C)sc(C)c1-c1cc(C)[nH]n1	i	1.71
COc1ccc(-c2cnn3c(SCC(=O)NC4CCS(=O)(=O)C4)cc(C)nc23)cc1OC (stereo not given)	i	-1.01
COc1ccc(CCNS(=O)(=O)c2ccc3c(c2)NC(=O)CS3)cc1OC	i	0.95
Cn1c(=O)sc2cc(S(=O)(=O)N3CCCC3)ccc21	i	-0.61
Cc1ccc(-c2nnc(SCc3noc(CCC(=O)Nc4nccs4)n3)o2)cc1	i	0.98
COc1ccc(OC)c(S(=O)(=O)N(C(=O)c2ccc(C)cc2)c2ccc3oc(=O)sc3c2)c1	i	0.35
CCN1CCCc2cc(C(=O)NCc3cccs3)sc21	i	1.6
Cc1ccc(NS(=O)(=O)c2cc(-c3cc(C(F)(F)F)on3)sc2C)c(C)c1	i	0.26

Following part:
SMILES	Choline anaer gr	Choline anaer gr early
COc1ccc(-n2ccc(=O)c(-c3nc(-c4ccccc4Br)no3)n2)cc1	i	-0.05
COc1cc(OC)c(NCC(O)Cn2nnnc2-c2ccccc2)cc1Cl (stereo not given)	i	-0.75
CCOc1ccc(NC(=O)N2CCCC(c3cccc(C(=O)NCc4ccccc4)c3)C2)cc1 (stereo not given)	i	-0.16
COc1ccc(NC(=O)c2ccccc2-c2nc(-c3ccccc3)no2)cc1OC	i	0.64
CCn1nccc1C1CCCN1C(=O)c1c(Cl)cnn1CC (stereo not given)	i	-0.59
COC(=O)CC1=CC(SCC(=O)NC2CCc3ccccc32)=Nc2ccccc2N1 (stereo not given)	i	0.36
O=C1CCCc2cc(S(=O)(=O)NCCC3=CCCCC3)ccc2N1	i	-1.2
CC(C)n1cnc(S(=O)(=O)N2CCCC(C(=O)N3CCOCC3)C2)c1 (stereo not given)	i	-0.17
CCOc1ccc(-c2nnc(SCC(=O)N3c4ccccc4CC3C)o2)cc1 (stereo not given)	i	1.11
CC(C)(C)c1ccc(C(=O)N2CC(OCc3ccc(F)cc3Cl)C2)cc1	i	2.18
COc1ccc(CNc2ncnc3scc(-c4ccc(Cl)cc4)c23)c(OC)c1	i	1.29
CCOC(=O)c1c(NC(=O)c2snnc2C)sc2c1CCC2	i	-0.02
Cn1c(=O)c(N2CCC(C(=O)NCCCN3CCN(c4ccccc4)CC3)CC2)nc2ccccc21	i	-0.63
CCCNC(=O)CN1C(=O)CCCc2ccccc21	i	0.9
CCOc1ccccc1C1C2=C(CC(c3ccccc3)CC2=O)Nc2onc(C)c21 (stereo not given)	i	0.52
C=C[C@@]1(C)CC(=O)[C@@]2(O)[C@@]3(C)C(O)CCC(C)(C)[C@@H]3C(O)C(OC(C)=O)[C@@]2(C)O1 (stereo not given in full)	i	-0.57
CCc1ccc(S(=O)(=O)NCc2ccc3c(c2)CCN3C(=O)c2ccc(F)cc2)cc1	i	-0.78
CC(C)CC(=O)N1CCC2(C1)C(=O)N(C)c1ccccc12 (stereo not given)	i	0.59
O=C(Cn1cnc2c(oc3ccccc32)c1=O)N1CCC(Cc2ccccc2)CC1	i	0.31
Cc1cc(C(=O)N2CCN(c3ccccc3)CC2)c2ccccc2n1	i	-1.93
O=C(CCC1CCCC1)Nc1nnc(SCc2nnc(-c3ccccc3)o2)s1	i	-0.12
Cc1cc(C2CCCN2C(=O)NC2CCCCC2)on1 (stereo not given)	i	-0.7
CCSc1ncc2c(=O)n(CC(=O)N3CCCCC3)cnc2n1	i	-1.05
CC1CCCCN1CCNC(=O)c1nn(C)c2c1CCc1sccc1-2 (stereo not given)	i	-1.3
